From PubChem BioAssay
NPYLR7 ag: mosquito NPYLR7 agonism. 270,000 tested, 0.15% active. activation, % at 10 µM. AID 1259423. HEK293T NPYLR7/Galpha15, GCaMP6s calcium fluorescence; in the data active means activation above about 40%;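 further: 0% = vehicle and 100% = reference agonist at the receptor; some compounds past the cut are filed as inactive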
NPYLR7 ag max-min: also measured in NPYLR7 ag; calls as there; activation, %; measured here: Max-Min RFU normalised activation; some inactives read as strong as hits;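 span of the calcium signal over five minutes; 0% = vehicle and 100% = native peptide agonist; compound fluorescence can raise it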
The depositor's hits bear a star; & = joins results of further samples. Some of the compounds tested, so the mix of outcomes need not match the whole.

Order of results – NPYLR7 ag | NPYLR7 ag max-min
#1 Cc1cccn2c(=O)c3cc(C#N)c(=O)n(CCN4CCOCC4)c3nc12
  -0.2 | 0.2
#2 Cc1ccnc(NC(=O)CCC(=O)N2CCCN3CCC[C@H]3C2)c1
  4.7 | 3.3
#3 O=C1OCCC1SCc1ccccc1 (configuration not stated)
  8.8 | 2.7
#4 O=C(CCCN1CCC(n2c(=O)[nH]c3ccccc32)CC1)c1ccc(F)cc1
  -7.9 | -12.7
#5 Cc1cc(C)cc(COc2coc(CN3CCN(C(=O)COc4c(F)c(F)c(F)c(F)c4F)CC3)cc2=O)c1
  7.8 | 7.1
#6 CCOc1cc(N(CC)CC)ccc1C=C1C(=O)NC(=S)NC1=O
  2.0 | -5.4
#7 Cc1ccnc(NC(=O)c2cccn(Cc3cccc(C(F)(F)F)c3)c2=O)c1
  3.7 | 0.4
#8 CCN(CC)C(=O)c1ccc(N2C(=O)CC3CS(=O)(=O)CC32)cc1 (configuration not stated)
  -0.2 | 8.8
#9 NCCc1ccc(O)cc1
  11.7&0.4 | 4.8&-9.3
#10 COCCNC(=O)CN1C(=O)CSC(c2cccc(F)c2)c2c(-c3ccccc3)nn(-c3ccc(C)cc3C)c21 (configuration not stated)
  24.7 | 33.7
#11 Cc1cccnc1NCCNC(=O)C1CC2(CCNCC2)CN1 (configuration not stated)
  22.0 | 6.2
#12 CC(=O)OC(C)(C)C(=O)N1CCN(CCOC(c2ccccc2)c2cccc(C(F)(F)F)c2)CC1 (configuration not stated)
  17.1 | 18.3
#13 c1ccc(C2=NON3OC23c2ccccc2)cc1 (configuration not stated)
  -6.5 | -6.9
#14 c1ccc2c(c1)OCC(C1=NCCN1)O2 (configuration not stated)
  -6.5&1.4&-1.4 | -8.5&-0.5&-4.0
#15 Cc1ccc(-n2nc(-c3ccccc3)c3c2N(CC(=O)O)C(=O)CSC3c2ccc3c(c2)OCO3)c(C)c1 (configuration not stated)
  1.5 | -2.3
#16 O=C(c1cc([N+](=O)[O-])c[nH]1)C(Cl)(Cl)Cl
  -0.2 | 4.3
#17 N#Cc1nn(-c2c(Cl)cc(C(F)(F)F)cc2Cl)c(N)c1S(=O)C(F)(F)F (configuration not stated)
  4.1 | 3.9
#18 Cc1ccc(CN2CCN(CCOC(c3ccccc3)c3ccc(F)c(F)c3)CC2)o1 (configuration not stated)
  0.2 | 9.0
#19 CC12C=CC(O1)C1C(=O)N(c3ccc4c(c3)OCO4)C(=O)C12 (configuration not stated)
  -3.1 | -10.4
#20 CN1CCN(C(=O)Cc2cc(=O)[nH][nH]c2=O)CC1c1ccccc1 (configuration not stated)
  3.2 | 1.0
#21 CCCCN(C)C(=O)c1nn(Cc2ccc(C(=O)N(C)Cc3ccccc3)cc2)c2ccccc12
  14.8 | 17.4
#22 N#Cc1cc2c(nc1SCc1ccccc1Br)C1CCN2CC1
  -3.4 | -4.4
#23 N#CC1C(=N)Oc2c(c(=O)oc3ccccc23)C1c1cccs1 (configuration not stated)
  5.1 | -3.2
#24 O=C(c1cn(CC2CCCCC2)nn1)N(Cc1ccccc1)CC1CCC1
  -2.0 | -5.7
#25 CCCCOC1CC(NC)C1(C)C (configuration not stated)
  5.1 | 15.0
#26 Cc1ccc(N2C(=O)NC(=O)/C(=C\c3ccc(C)o3)C2=O)cc1
  -8.6 | -11.1
#27 Cc1ccc(NC(=O)C(C2CCCC2)N2CCN(C(=O)Cc3cccs3)CC2)cc1F (configuration not stated)
  -5.6 | 31.6
#28 COc1ccc(CC2c3cc(OC)c(OC)cc3CCN2C)cc1OC (configuration not stated)
  -2.9 | -4.5
#29 CN1CCN(c2nc3ccccc3nc2Cl)CC1
  -3.4 | -7.3
#30 CCOc1ccc(C(=O)Nc2ccc3[nH]cc(CCN4CCCC4)c3c2)cc1
  9.4 | 5.4
#31 O=C(NCc1ccc(-c2ncc(-c3ccc(F)cc3)[nH]2)cc1)c1ccc(S(=O)(=O)F)cc1
  23.6 | 14.7
#32 Cc1cccc2c(CCNC(C)Cn3cncn3)c[nH]c12 (configuration not stated)
  17.4 | 14.9
#33 CSc1ccc(C(=O)C2CCCN(CCC(=O)O)C2)cc1 (configuration not stated)
  4.5 | 3.0
#34 CC(C)Oc1ccccc1CCNC1CCSC1 (configuration not stated)
  2.4 | 0.0
#35 CCn1cnc2c(Nc3cccc(Cl)c3)nc(N[C@@H]3CCCC[C@@H]3N)nc21
  6.3 | -6.9
#36 CCOC(=O)C1C(C(=O)OCC)C12C=Cc1ccccc12 (configuration not stated)
  8.9 | 2.4
#37 CON(C)S(=O)(=O)c1ccc(Cn2nc(C(=O)Nc3ccccc3-n3cccc3)c3ccccc32)cc1
  11.6 | 16.1
#38 CCN(CC)P1(=S)c2c(c3ccccc3n2C)C=NN1c1ccccc1 (configuration not stated)
  4.4 | 4.9
#39 CC(C)=CCCC1(C)C=Cc2c(O)c3c(c(CC=C(C)C)c2O1)OC12C(=CC4CC1C(C)(C)OC2(C/C=C(/C)C(=O)O)C4O)C3=O (configuration not stated)
  -8.4 | -15.5
#40 CCN1C(=O)C2(c3ccccc31)c1oc(CO)cc(=O)c1OC(=N)C2C(=O)OC (configuration not stated)
  7.1 | 4.0
#41 CCCc1cncnc1N1CCN2CCN(C)C(=O)C2C1 (configuration not stated)
  14.3 | 9.7
#42 CCON1C(=O)C2C3OC(C2C1=O)C1C3C2(Cl)C(Cl)=C(Cl)C1(Cl)C2(Cl)Cl (configuration not stated)
  -0.7 | 13.6
#43 O=C(O)CN1C2=[N+](CCS2)CC1c1ccccc1 (configuration not stated)
  -3.4 | -2.7
#44 CSc1nc(NC(C)C)c2cnn(CCN)c2n1
  -2.7 | -4.3
#45 Cc1cc(-c2ccc(C=C3C(=O)NC(=O)NC3=O)o2)ccc1[N+](=O)[O-]
  -12.1 | -20.2
#46 COc1ccccc1C(=O)Nc1cccc(N2CCC(NC(C)Cc3cncs3)CC2)c1 (configuration not stated)
  25.3 | 3.7
#47 CN1C(=C2C=NN(C)P2(=S)N2CCCC2)C(C)(C)c2ccccc21 (configuration not stated)
  7.9 | 10.0
#48 Cc1ccc(NC(=O)CN2CN(c3ccccc3)C3(CCNCC3)C2=O)cc1C
  -4.9 | -13.8
#49 Cc1cc(C=C2C(=O)NC(=S)NC2=O)c(C)n1C1CCCC1
  14.5 | 11.4
#50 C#CCN(C)S(=O)(=O)c1ccc(Cn2nc(C(=O)Nc3ccc(C(C)C)cc3)c3ccccc32)cc1
  20.6 | 23.0
#51 CN1CCC(N2C[C@@H]3C[C@H](C2)c2c(NC(=O)Nc4cccc(F)c4)ccc(=O)n2C3)CC1
  -8.1 | -15.7
#52 c1ccc([C@@H]2CN(Cc3cccc4ncccc34)[C@@H]3C4CCN(CC4)[C@@H]32)cc1
  -3.1 | -3.5
#53 O=C1NC(=S)NC(=O)C1=Cc1cn(-c2ccccc2)nc1-c1cc2c(ccc3ccccc32)oc1=O
  3.0 | 4.8
#54 COc1ccccc1CNC(=O)CN1[C@@H]2CC[C@H]1CC(O)C2 (some centres not stated)
  -0.1 | 2.3
#55 O=C(CN1CCCC1=O)NC(C1CC1)C1CC1
  8.7 | 7.6
#56 COc1cc(NC(=O)N2CCN(CCOC(c3ccccc3)c3cccc(C(F)(F)F)c3)CC2)cc(OC)c1 (configuration not stated)
  23.6 | 19.9
#57 Cc1ccccc1-n1c(Cn2cnc3c(N)ncnc32)nc2cccc(C)c2c1=O
  -4.5 | -9.7
#58 C[C@H]1C2Cc3ccc(O)cc3[C@@]1(C)CCN2CC1CC1
  -0.9 | -29.8
#59 O=S(=O)(c1cc(Br)c(Br)s1)N1CCN(CCOC(c2ccccc2)c2cccc(C(F)(F)F)c2)CC1 (configuration not stated)
  4.3 | 2.5
#60 C=CCN1CC[C@]23c4c5ccc(O)c4OC2C(=O)CC[C@@]3(O)[C@H]1C5 (some centres not stated)
  -6.3&-1.9 | -9.4&-8.9

Going on with the list:
Order of results – NPYLR7 ag | NPYLR7 ag max-min
#61 CCOC(=O)CN1C(=O)C2(c3ccccc31)c1c(cc(C)n(CC)c1=O)OC(=N)C2C(=O)OCC (configuration not stated)
  -1.0 | -4.4
#62 COc1cccc2sc(N(CCN(C)C)C(=O)Cc3ccc(F)cc3)nc12
  1.3 | -0.6
#63 CC(Cc1ccc(Cl)cc1Cl)NC(=O)N(C)C1CCOCC1 (configuration not stated)
  -24.9 | -25.2
#64 CN1c2ccccc2C(NCCCCCCC(=O)O)c2ccc(Cl)cc2S1(=O)=O (configuration not stated)
  -13.4&-7.4 | -17.2&-13.9
#65 CCCN(CCC)[C@H]1CCc2c(F)ccc(O)c2C1
  4.1 | -38.4
#66 CN(Cc1ccccc1)C1CCCN(C(=O)Cc2ccsc2)C1 (configuration not stated)
  3.5 | 0.2
#67 CNC(C)c1nc2ccccc2c(=O)n1-c1ccc(Cl)cc1C (configuration not stated)
  -5.2 | 5.2
#68 CN(Cc1ccco1)C(=O)c1cn(Cc2ccccn2)cc(C(=O)NC2CCCCCCC2)c1=O
  8.2 | 10.2
#69 CC(Cc1ccccn1)NCc1ccc2[nH]c3c(c2c1)CCCC3 (configuration not stated)
  18.7 | 12.3
#70 CCOC(=O)CCC(=O)N1CCN(CCOC(c2ccccc2)c2ccc(F)c(F)c2)CC1 (configuration not stated)
  17.1 | 20.4
#71 O=C(CC1=CCCCC1)N1[C@H]2CCNC[C@@H]1CC2
  20.2 | 9.7
#72 Cc1cc(NS(=O)(=O)c2ccc(C#N)c(C(F)(F)F)c2)ccn1
  -3.5 | -3.6
#73 Cc1ccnc(CC(C)N(C)CCc2ccccc2)c1 (configuration not stated)
  -3.0 | -5.7
#74 COc1ccc([C@@H]2CN(c3noc(C)n3)[C@@H]3C4CCN(CC4)[C@@H]32)cc1
  6.0 | 3.8
#75 Cc1cc(NC2CN3CCC2CC3)ccc1-n1cnnn1 (configuration not stated)
  10.9&8.0 | 6.0&10.8
#76 CCN(Cc1ccncc1)C1CCCN(C(=O)Cc2ccc3c(c2)OCO3)C1 (configuration not stated)
  3.7 | -0.2
#77 Cc1ccc2nc(CN3C[C@@H]4C[C@@H](C3)c3cccc(=O)n3C4)nc(N3CCSCC3)c2c1
  17.8 | 7.5
#78 Cc1cc(C=C2C(=O)NC(=O)NC2=O)c(C)n1C
  4.1 | 3.4
#79 CNP(=O)(Oc1ccccc1)OC12CC3CC(CC(C3)C1)C2 (configuration not stated)
  5.0&2.5 | 1.6&2.1
#80 Cc1ccc(S(=O)(=O)N2CC2)cc1
  -0.1 | -1.1
#81 COc1cccc(C2c3c(c4ccccc4oc3=O)OC(=N)C2C#N)c1 (configuration not stated)
  -1.6 | -6.3
#82 COc1cccc(CC(=O)N2CCN(C(c3ccc(F)cc3)c3ccc(F)cc3)CC2)c1
  -6.7 | -3.2
#83 OC1(c2ccc(F)cc2)C[N+]2=C(SCCC2)N1Cc1ccccc1 (configuration not stated)
  -3.9 | -7.9
#84 O=C(O)c1[nH]ncc1CN1CCCC(C(=O)c2cccs2)C1 (configuration not stated)
  11.0 | 8.5
#85 O=C(c1onc2ccccc12)N1CCC2(CCCNC2)C1 (configuration not stated)
  6.3 | 4.1
#86 COc1c[nH]c(CN2C[C@H]3C[C@H](C2)[C@@H]2CCCC(=O)N2C3)cc1=O
  2.5 | -2.1
#87 COc1ccc(S(=O)(=O)NC2CN3CCC2CC3)cc1Br (configuration not stated)
  10.3 | 18.2
#88 Cc1ccccc1CC(=O)N1CCN(Cc2cccc(-c3noc(-c4ccco4)n3)c2)CC1
  2.9 | -1.2
#89 CC(C)(C)P(c1ccccc1)c1ccncc1 (configuration not stated)
  3.0 | -1.3
#90 COc1cccc(CC(=O)N2CCN(C3c4ccccc4CCc4ccccc43)CC2)c1
  -1.3 | 7.3

Next part (6 carried over from the part before).
Order of results – NPYLR7 ag | NPYLR7 ag max-min
#85 O=C(c1onc2ccccc12)N1CCC2(CCCNC2)C1 (configuration not stated)
  6.3 | 4.1
#86 COc1c[nH]c(CN2C[C@H]3C[C@H](C2)[C@@H]2CCCC(=O)N2C3)cc1=O
  2.5 | -2.1
#87 COc1ccc(S(=O)(=O)NC2CN3CCC2CC3)cc1Br (configuration not stated)
  10.3 | 18.2
#88 Cc1ccccc1CC(=O)N1CCN(Cc2cccc(-c3noc(-c4ccco4)n3)c2)CC1
  2.9 | -1.2
#89 CC(C)(C)P(c1ccccc1)c1ccncc1 (configuration not stated)
  3.0 | -1.3
#90 COc1cccc(CC(=O)N2CCN(C3c4ccccc4CCc4ccccc43)CC2)c1
  -1.3 | 7.3
#91 Cc1nc(N2CCN3CCCC3C2)nc2cc3c(cc12)CCC3 (configuration not stated)
  4.6 | 3.1
#92 C=C1[C@@H]2CC[C@H]3[C@]4(C)C[C@H](O[C@H]5O[C@H](CO)[C@@H](OS(=O)(=O)O)[C@H](OS(=O)(=O)O)[C@H]5OC(=O)CC(C)C)C[C@@H](C(=O)O)[C@H]4CC[C@]3(C2)[C@H]1O
  -1.0 | -2.6
#93 CCOC(=O)C1C(=N)Oc2cc(C)[nH]c(=O)c2C12C(=O)N(Cc1ccc(Cl)cc1)c1ccccc12 (configuration not stated)
  -1.1 | -6.9
#94 CC(C)[C@@]1(NC(=O)[C@@H]2C[C@@H]3c4cccc5[nH]cc(c45)C[C@H]3N(C)C2)O[C@@]2(O)[C@@H]3CCCN3C(=O)[C@H](Cc3ccccc3)N2C1=O
  -5.5&-11.0 | -11.1&0.0
#95 O=C(Nc1cccc([N+](=O)[O-])c1)c1cccn(Cc2cccc(C(F)(F)F)c2)c1=O
  18.4 | 10.4
#96 COC1(C[S@@](=O)c2ccccc2)CCN(CCc2c[nH]c3ccc(F)cc23)CC1
  -8.3 | -10.6
#97 CCOC(=O)C(C)NC(=O)C(C(C)C)N1CCCC1=O (configuration not stated)
  33.1 | 21.1
#98 CCOC(=O)c1c(CN2CCOCC2)n(Cc2ccccc2)c2cc(Br)c(O)cc12
  1.3 | 0.2
#99 C=CCN1C(=O)NC(=O)/C(=C/c2ccc(OCC(=O)O)c(OCC)c2)C1=O
  -7.9 | -12.8
#100 O=C(Cc1c[nH]c2ccccc12)N1CCN(Cc2cccc(-c3noc(-c4cccc(Cl)c4)n3)c2)CC1
  3.6 | 0.8
#101 COCCN1CCCC2(CCN(c3ncccn3)C2)C1 (configuration not stated)
  8.3 | 6.3
